Source: PubChem BioAssay
FGF22 binding: FGF22 (human) thermal shift binding; recombinant FGF22 thermal shift, SYPRO orange fluorescence; percent of sucrose octasulfate shift, DMSO zero; calls only at 9.99 µM; 1.5% of 340,000 active;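 active = melting point raised past a set limit in the mean and every replicate; three in four hits are not shown here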
Target sequence (Q9HCT0 whole entry, looked up): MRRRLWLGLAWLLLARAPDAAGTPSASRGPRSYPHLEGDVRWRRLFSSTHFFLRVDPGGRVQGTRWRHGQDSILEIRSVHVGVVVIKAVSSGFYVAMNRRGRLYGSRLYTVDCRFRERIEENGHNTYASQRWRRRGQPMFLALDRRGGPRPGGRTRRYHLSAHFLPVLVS
Calls only; i = inactive; + = active, no number. The list is partial; count on the stated rates, not on these rows.

COc1ccc2c3c([nH]c2c1)[C@@H](CO)N(C(=O)CN1CCOCC1)CC31CN(CC2CCCC2)C1
  FGF22 binding = i

COCC(=O)N1[C@@H]2c3ccc(/C=C/c4ccccc4)c(=O)n3C[C@H]1[C@H](CO)[C@H]2C(=O)N1CCCCC1
  FGF22 binding = i

C[C@H]1CN([C@@H](C)CO)C(=O)Cc2cc(NC(=O)Nc3ccccc3)ccc2O[C@H]1CN(C)C(=O)NC1CCCCC1
  FGF22 binding = i

Cc1ccc(S(=O)(=O)N(C)C[C@@H]2Oc3c(NC(=O)c4ccncc4)cccc3C(=O)N([C@@H](C)CO)C[C@@H]2C)cc1
  FGF22 binding = i

CO[C@@H]1CN(C)C(=O)c2ccc(NC(=O)NC(C)C)cc2OC[C@H](C)N(CC2CC2)C[C@H]1C
  FGF22 binding = i

C[C@H](CO)N1C[C@H](C)[C@H](CN(C)C(=O)Nc2ccc(F)cc2)OCCCC[C@H](C)Oc2ccc(NC(=O)c3ccncc3)cc2C1=O
  FGF22 binding = i

C[C@H]1CN([C@@H](C)CO)C(=O)c2cccc(NS(=O)(=O)c3ccc(Cl)cc3)c2O[C@H]1CN(C)C(=O)NC1CCCCC1
  FGF22 binding = i

Cc1noc(C)c1S(=O)(=O)N(C)C[C@@H]1OCCCC[C@@H](C)Oc2ccc(NC(=O)Nc3cccc4ccccc34)cc2C(=O)N([C@H](C)CO)C[C@@H]1C
  FGF22 binding = i

C[C@H]1CCCCO[C@H](CN(C)C(=O)c2ccncc2)[C@@H](C)CN([C@@H](C)CO)C(=O)c2cc(NS(=O)(=O)c3ccccc3)ccc2O1
  FGF22 binding = i

COc1ccc(S(=O)(=O)Nc2ccc3c(c2)C(=O)N([C@H](C)CO)C[C@H](C)[C@H](CN(C)S(C)(=O)=O)O3)cc1
  FGF22 binding = i

CCN(C[C@H]1[C@H](c2ccccc2)[C@H](CO)N1C(=O)COC)S(C)(=O)=O
  FGF22 binding = i

Cc1noc(C)c1S(=O)(=O)N(C)C[C@@H]1OCCCC[C@H](C)Oc2ccc(NS(=O)(=O)c3ccc(F)cc3)cc2C(=O)N([C@@H](C)CO)C[C@H]1C
  FGF22 binding = i

O=C(NC1CCC1)[C@@H]1[C@@H](CO)[C@@H]2Cn3c(ccc(C4=CCCCC4)c3=O)[C@H]1N2CC1CC1
  FGF22 binding = i

Cc1noc(C)c1S(=O)(=O)N(C)C[C@H]1Oc2ccc(NC(=O)NC(C)C)cc2CC(=O)N([C@H](C)CO)C[C@@H]1C
  FGF22 binding = i

CO[C@H]1CN(C)C(=O)c2ccc(NC(=O)C3CCC3)cc2OC[C@@H](C)N(Cc2cccnc2)C[C@H]1C
  FGF22 binding = i

CCCNC(=O)N1C[C@H](O)COC[C@@H]2O[C@H](CC(=O)N3CCN(C)CC3)CC[C@H]21
  FGF22 binding = i

COc1ccc(-c2ccc3c(n2)CCCN3S(=O)(=O)c2ccc(OC)cc2)cc1
  FGF22 binding = i

C[C@H](CO)N1C[C@H](C)[C@H](CN(C)S(=O)(=O)c2cn(C)cn2)OCCCC[C@H](C)Oc2ccc(NC(=O)Nc3cccc4ccccc34)cc2C1=O
  FGF22 binding = i

CC(=O)N1CCCCN2[C@H](CO)[C@@H](c3ccc(Br)cc3)[C@@H]2C1
  FGF22 binding = i

CC(C)NC(=O)N[C@@H]1CC[C@H](CCN)O[C@@H]1CO
  FGF22 binding = i

Cc1ccc(S(=O)(=O)Nc2ccc3c(c2)CC(=O)N([C@@H](C)CO)C[C@H](C)[C@@H](CN(C)Cc2ccc(C(=O)Nc4ccccc4N)cc2)O3)cc1
  FGF22 binding = i

C[C@@H]1CN([C@@H](C)CO)S(=O)(=O)c2ccc(C#CC3CC3)cc2O[C@@H]1CN(C)C(=O)Cc1ccncc1
  FGF22 binding = i

CO[C@H]1CN(C)C(=O)c2cc(NC(=O)c3cc(C)on3)ccc2OC[C@@H](C)N(C(=O)C2CC2)C[C@@H]1C
  FGF22 binding = i

C[C@@H]1CN([C@H](C)CO)C(=O)c2cc(NC(=O)c3ccccc3)ccc2O[C@@H](C)CCCCO[C@H]1CN(C)C(=O)Cc1ccccc1
  FGF22 binding = i

C[C@H]1CN([C@@H](C)CO)C(=O)Cc2cc(NC(=O)C3CC3)ccc2O[C@@H]1CN(C)Cc1ccccc1
  FGF22 binding = i

COc1ccc(CN(C)C[C@@H]2Oc3ccc(NS(=O)(=O)c4ccc(OC)cc4)cc3CC(=O)N([C@H](C)CO)C[C@@H]2C)cc1
  FGF22 binding = i

CCCC(=O)Nc1ccc2c(c1)OC[C@H](C)N(CCC)C[C@H](C)[C@H](OC)CN(C)C2=O
  FGF22 binding = i

O=C(c1ccc2c(c1)OCO2)N1CCCCN2[C@H](CO)[C@@H](c3ccc(-c4ccccc4)cc3)[C@@H]2C1
  FGF22 binding = i

COc1ccc(-c2ccc3c(c2)[C@@H]2[C@@H](CCN2C(=O)c2ccc4c(c2)OCO4)[C@H](CO)N3)cc1
  FGF22 binding = i

COCC#Cc1cnc2c(c1)C(=O)N([C@@H](C)CO)C[C@H](C)[C@H](CN(C)C(=O)Nc1cccc(F)c1)O2
  FGF22 binding = i

OC[C@@H]1[C@@H](c2ccccc2)C2(CN(Cc3cccnc3)C2)N1Cc1ccncc1
  FGF22 binding = i

CC(C)NC(=O)[C@@]1(Cc2ccccc2I)c2ccccc2C(=O)N(Cc2ccccc2C(F)(F)F)[C@H]1c1ccc(CO)cc1
  FGF22 binding = i

C[C@H]1CN([C@@H](C)CO)C(=O)Cc2cc(NC(=O)CCCN(C)C)ccc2O[C@@H]1CN(C)CC1CCCCC1
  FGF22 binding = i

O=C(C[C@@H]1C[C@@H]2c3cc(NC(=O)C4CCC4)ccc3O[C@@H]2[C@@H](CO)O1)NCc1cc(F)ccc1F
  FGF22 binding = i

CO[C@@H]1CN(C)C(=O)c2ccc(NS(C)(=O)=O)cc2OC[C@@H](C)N(C(=O)CC2CC2)C[C@@H]1C
  FGF22 binding = i

CCCC(=O)Nc1ccc2c(c1)C(=O)N(C)[C@H]1CC[C@H](CC(=O)NCCc3ccccc3)O[C@H]1CO2
  FGF22 binding = i

COC(=O)[C@@H]1[C@@H](CO)[C@@H]2Cn3c(ccc(-c4ccccc4OC)c3=O)[C@@H]2N1C(=O)c1cnccn1
  FGF22 binding = i

CC(C)NC(=O)Nc1ccc2c(c1)CC(=O)N([C@H](C)CO)C[C@@H](C)[C@@H](CN(C)C(=O)Nc1ccc3c(c1)OCO3)O2
  FGF22 binding = i

O=C(Nc1ccc(F)cc1)N[C@H]1CC[C@@H](CC(=O)N2CCOCC2)O[C@H]1CO
  FGF22 binding = i

CC(=O)N(C)C[C@H]1Oc2ncc(C#Cc3cccc(F)c3)cc2C(=O)N([C@@H](C)CO)C[C@H]1C
  FGF22 binding = i

C[C@@H](NC(=O)C[C@H]1C[C@@H]2c3cc(NC(=O)CN(C)C)ccc3O[C@@H]2[C@@H](CO)O1)c1ccccc1
  FGF22 binding = i

C[C@H]1CN([C@@H](C)CO)S(=O)(=O)c2ccc(-c3ccc(C#N)cc3)cc2O[C@H]1CN(C)Cc1cccc(F)c1
  FGF22 binding = i

O=C(C[C@H]1C[C@@H]2c3cc(NS(=O)(=O)c4ccc(F)cc4)ccc3O[C@@H]2[C@@H](CO)O1)NCc1ccccc1
  FGF22 binding = i

Cc1noc(C)c1S(=O)(=O)N(C)C[C@H]1OCc2cn(nn2)CCCC(=O)N([C@@H](C)CO)C[C@H]1C
  FGF22 binding = i

CCC(=O)Nc1ccc2c(c1)OC[C@H](C)N(Cc1cccc(F)c1)C[C@H](C)[C@H](OC)CN(C)C2=O
  FGF22 binding = i

COc1ccc(NC(=O)Nc2ccc3c(c2)C(=O)N([C@@H](C)CO)C[C@@H](C)[C@@H](CN(C)C(=O)Nc2cccc4ccccc24)OCCCC[C@H](C)O3)cc1
  FGF22 binding = i

COc1ccc(S(=O)(=O)N(C)C[C@@H]2Oc3ccc(NC(=O)Nc4cccc5ccccc45)cc3CC(=O)N([C@@H](C)CO)C[C@@H]2C)cc1
  FGF22 binding = i

COc1cccc(S(=O)(=O)N2CCCCN3[C@H](CO)[C@H](c4ccc(C#CC(C)C)cc4)[C@H]3C2)c1
  FGF22 binding = i

C[C@@H]1CCCCO[C@@H](CN(C)C(=O)CCCN(C)C)[C@H](C)CN([C@@H](C)CO)C(=O)c2cc(NS(=O)(=O)c3ccc(Cl)cc3)ccc2O1
  FGF22 binding = i

CNC[C@@H]1OCCCC[C@H](C)Oc2ccc(NC(=O)Nc3ccc(F)cc3)cc2C(=O)N([C@@H](C)CO)C[C@@H]1C
  FGF22 binding = i

Cc1noc(C)c1S(=O)(=O)Nc1ccc2c(c1)C(=O)N([C@@H](C)CO)C[C@H](C)[C@@H](CN(C)C(=O)NC(C)C)O2
  FGF22 binding = i

C[C@@H]1CN([C@@H](C)CO)C(=O)c2cc(NC(=O)CCCN(C)C)ccc2O[C@H]1CN(C)S(=O)(=O)c1ccc(F)cc1
  FGF22 binding = i

C[C@H]1CN([C@@H](C)CO)C(=O)c2cc(-c3ccncc3)cnc2O[C@H]1CN(C)S(=O)(=O)c1ccc(F)cc1
  FGF22 binding = i

COc1ccc(NC(=O)Nc2ccc3c(c2)C(=O)N([C@H](C)CO)C[C@@H](C)[C@H](CN(C)C(=O)Nc2ccccc2)O3)cc1
  FGF22 binding = i

COc1ccc(CN(C)C[C@H]2Oc3c(NC(=O)Nc4ccc(C(F)(F)F)cc4)cccc3C(=O)N([C@H](C)CO)C[C@H]2C)cc1
  FGF22 binding = i

CC(C)NC(=O)Nc1ccc2c(c1)CC(=O)N([C@@H](C)CO)C[C@H](C)[C@@H](CN(C)C(=O)Nc1ccc3c(c1)OCO3)O2
  FGF22 binding = i

C[C@H](CO)N1C[C@H](C)[C@@H](CN(C)CC2CCCCC2)Oc2c(NS(=O)(=O)c3ccc(Cl)cc3)cccc2C1=O
  FGF22 binding = i

C[C@H](CO)N1C[C@H](C)[C@H](CN(C)Cc2ccc(Oc3ccccc3)cc2)Oc2c(NS(=O)(=O)c3ccc(Cl)cc3)cccc2C1=O
  FGF22 binding = i

O=C(Nc1ccc2c(c1)[C@H]1C[C@H](CC(=O)N3CCOCC3)O[C@H](CO)[C@H]1O2)c1cccnc1
  FGF22 binding = i

CCS(=O)(=O)Nc1ccc2c(c1)C(=O)N(C)[C@@H]1CC[C@H](CC(=O)N3CCCCC3)O[C@H]1CO2
  FGF22 binding = i

In the list so far, 2 have a CF3 group.
CC(C)NC(=O)[C@@]1(Cc2ccccc2I)c2ccccc2C(=O)N(Cc2ccccc2C(F)(F)F)[C@H]1c1ccc(CO)cc1
  FGF22 binding = i

COc1ccc(CN(C)C[C@H]2Oc3c(NC(=O)Nc4ccc(C(F)(F)F)cc4)cccc3C(=O)N([C@H](C)CO)C[C@H]2C)cc1
  FGF22 binding = i

New compounds follow
CCC(=O)N1C[C@H](C)[C@@H](OC)CN(C)C(=O)c2cc(NC(=O)c3cnccn3)ccc2OC[C@H]1C
  FGF22 binding = i

OC[C@H]1[C@H](c2ccc(-c3ccccc3F)cc2)[C@H]2CN(Cc3cncnc3)CCCCN21
  FGF22 binding = i

C[C@@H]1CCCCO[C@H](CN(C)S(C)(=O)=O)[C@@H](C)CN([C@@H](C)CO)C(=O)c2cc(NC(=O)NC3CCCCC3)ccc2O1
  FGF22 binding = i

Cc1ccc(S(=O)(=O)Nc2ccc3c(c2)C(=O)N([C@H](C)CO)C[C@H](C)[C@H](CN(C)Cc2ccc(Cl)c(Cl)c2)OCCCC[C@H](C)O3)cc1
  FGF22 binding = i

COC(=O)C1=C(C)N(Cc2ccc(Cl)cc2)C(=S)NC1c1cccc(Br)c1 (stereo unspecified)
  FGF22 binding = i

O=C(C[C@@H]1C[C@H]2c3cc(NS(=O)(=O)c4ccccc4)ccc3O[C@H]2[C@H](CO)O1)NC1CCCCC1
  FGF22 binding = i

COc1ccc(NC(=O)N2C[C@H]3[C@@H](c4ccccc42)[C@H](CO)N3C(=O)C2CC2)cc1
  FGF22 binding = i

COc1cc(CN2CC3(CN(C(=O)NC(C)C)C3)c3c(n(C)c4cc(OC)ccc34)[C@H]2CO)cc(OC)c1
  FGF22 binding = i

CC(=O)N(C)C[C@@H]1Oc2cc(C#Cc3cccnc3)ccc2S(=O)(=O)N([C@H](C)CO)C[C@@H]1C
  FGF22 binding = i

C[C@H]1CN([C@@H](C)CO)C(=O)c2cccc(NC(=O)Nc3ccccc3)c2O[C@@H]1CN(C)C(=O)NC1CCCCC1
  FGF22 binding = i

C[C@@H]1CN([C@@H](C)CO)C(=O)c2cc(NS(=O)(=O)c3cn(C)cn3)ccc2O[C@@H](C)CCCCO[C@H]1CN(C)S(=O)(=O)c1cccs1
  FGF22 binding = i

C[C@@H]1CN([C@H](C)CO)C(=O)c2cc(-c3ccc(C#N)cc3)cnc2O[C@H]1CN(C)C(=O)CN(C)C
  FGF22 binding = i

C[C@H]1CN([C@@H](C)CO)C(=O)Cc2cc(NS(=O)(=O)c3ccc(Cl)cc3)ccc2O[C@@H]1CN(C)C(=O)Nc1ccc(F)cc1
  FGF22 binding = i

COc1ccc(S(=O)(=O)Nc2ccc3c(c2)C(=O)N([C@@H](C)CO)C[C@H](C)[C@@H](CN(C)C(=O)C2CCCCC2)OCCCC[C@H](C)O3)cc1
  FGF22 binding = i

CCC(=O)N1CC2(C1)[C@@H](c1ccccc1)[C@@H](CO)N2C(=O)NC(C)C
  FGF22 binding = i

COc1ccc(NC(=O)N(C)C[C@@H]2Oc3ccc(NS(=O)(=O)c4ccc(Cl)cc4)cc3C(=O)N([C@@H](C)CO)C[C@@H]2C)cc1
  FGF22 binding = i

O=C(N[C@H]1C=C[C@@H](CC(=O)N2CCCCC2)O[C@H]1CO)c1ccc2c(c1)OCO2
  FGF22 binding = i

C[C@@H]1CCCCO[C@@H](CN(C)Cc2ccc(Cl)c(Cl)c2)[C@H](C)CN([C@@H](C)CO)C(=O)c2cc(NS(=O)(=O)c3ccccc3)ccc2O1
  FGF22 binding = i

COc1cccc(-c2ccc([C@H]3[C@@H](CO)N(C(=O)Cc4ccncc4)[C@H]3C#N)cc2)c1
  FGF22 binding = i

O=C(C[C@@H]1CC[C@H](NC(=O)CN2CCOCC2)[C@@H](CO)O1)NCCc1ccccc1
  FGF22 binding = i

COCC(=O)N1[C@H](CO)[C@H](c2ccccc2)C12CN(C(=O)c1ccccc1)C2
  FGF22 binding = +

C[C@H]1CN([C@@H](C)CO)C(=O)Cc2cc(NC(=O)Cc3ccccc3)ccc2O[C@H]1CN(C)Cc1ccncc1
  FGF22 binding = i
